MLL AF4-AF9 inh – inhibitors of human MLL-AF4/AF9 interaction; 0.47% of 350,000 active; AlphaScreen, biotin-AF4 peptide binding to FLAG-AF9; inhibition, % at 10 µM;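 active = every replicate reaching a set inhibition limit, whatever the replicate mean, cut at about 25% in these data; inconclusive = mean inhibition reaches that limit but some replicates miss it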;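 note: 0% = plate neutral control median and 100% = total signal loss; the record names both 10 and 1 µM as test concentration; the first replicate is given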
Target sequence (P42568 whole entry, looked up): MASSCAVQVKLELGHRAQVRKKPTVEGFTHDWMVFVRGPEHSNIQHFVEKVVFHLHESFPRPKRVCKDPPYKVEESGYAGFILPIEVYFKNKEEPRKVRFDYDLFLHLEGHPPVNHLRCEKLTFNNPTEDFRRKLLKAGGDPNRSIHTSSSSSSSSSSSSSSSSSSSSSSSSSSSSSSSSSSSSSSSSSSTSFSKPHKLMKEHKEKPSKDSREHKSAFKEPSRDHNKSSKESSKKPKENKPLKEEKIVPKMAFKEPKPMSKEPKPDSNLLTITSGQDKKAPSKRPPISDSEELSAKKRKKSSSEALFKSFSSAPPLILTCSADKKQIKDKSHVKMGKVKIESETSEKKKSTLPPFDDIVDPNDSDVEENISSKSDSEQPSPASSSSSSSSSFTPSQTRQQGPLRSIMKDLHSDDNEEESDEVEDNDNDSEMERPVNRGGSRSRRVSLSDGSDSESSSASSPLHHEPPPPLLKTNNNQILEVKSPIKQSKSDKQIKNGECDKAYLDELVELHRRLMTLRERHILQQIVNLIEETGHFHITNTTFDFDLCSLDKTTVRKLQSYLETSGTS
T cruzi inh – T. cruzi replication inhibition | AID 1885 | 1.4% of 300,000 active | T. cruzi beta-gal in NIH3T3, luminescence, 90 h | inhibition, % (concentration not given with the values);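 active = mean inhibition across valid replicates above about 55%, limit read from the data; inconclusive = mean below that limit but half or more replicates reach it; inactive = mean below it, under half of replicates reach it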;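 note: signal also drops with host cell toxicity which is not excluded here; 0% = plate median of DMSO wells and 100% = zero luminescence signal; higher percent means less beta-gal luminescence so fewer parasites; stock transfer was 50 nL into about 50 µL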
RanGTP-Imp inh – inhibitors of RanGTP-importin-beta interaction, primary screen, biochemical, FRET, CFP-Ran, YFP-importin-beta, homogeneous; 1.1% of 300,000 active; cell-free CFP-Ran/YFP-importin-beta FRET ratio; AID 2216; inhibition, % (no concentration beside the values);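 active = most replicates above 15%; inconclusive = exactly half above 15%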;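 note: 0% = DMSO wells and 100% = Ran loaded with GDP instead of GTP; wells of about 40 µL received 100 nL stock; the first replicate is given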
Ecoli rRNA inh – inhibitors of bacterial rRNA selective over humanized ribosomes; E. coli WT GFP vs humanized-ribosome RFP mutants, fluorescence, 24 h; active compounds read low; DMSO median 0, no signal -100; GFP signal change (wild-type ribosome), % (concentration not given with the values); 1.6% of 350,000 active; AID 720706;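 active = significant combined selectivity score with lowered wild-type GFP, culture density cut under 30%, mutant RFP and density less affected; inactive = any of these conditions unmet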; note: one replicate is shown; some compounds called inactive have numbers as strong as hits
Calb FLC – affects C. albicans growth with fluconazole; C. albicans CaCi-2 (fluconazole-resistant clinical isolate) + fluconazole, Alamar Blue growth, 48 h; growth inhibition, % (no concentration beside the values); 0.57% of 300,000 active; AID 1979;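 active = most replicates above 75%; inconclusive = exactly half above 75%; inactive = most below 75%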;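 note: all wells also contain fluconazole at 8 µg/ml as a sub-toxic cotreatment; 0% = median of DMSO wells and 100% = median of geldanamycin control wells; wells of about 8 µL received 7.5 nL stock; the first replicate is given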
Vif TR-FRET – inhibitors of Vif binding to APOBEC3G peptide, primary screen, biochemical, TR-FRET, GST-Vif 1-94, biotin-A3G peptide, dose response retest (AID 1117319) | 0.57% of 260,000 active | inhibition, %; hits with a dose series show IC50 in µM | TR-FRET GST-Vif / biotin-A3G peptide binding; higher % means a stronger effect; test concentration not given here; strong numbers were not always called active;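 active = above the screen mean plus three standard deviations and confirmed in dose response; inconclusive = results disagree or hit not tested in dose response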;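 note: Vif residues 1-94 fused to GST binding biotinylated APOBEC3G peptide 110-148; 0% = full assay without inhibitor and 100% = GST in place of GST-Vif; retest series ran down from 100 µM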
Bfl-1 A1 inh – inhibitors of the anti-apoptotic protein A1, read as caspase activation; MEF A1-2A-BIM cells, Caspase-Glo 3/7 luminescence, 3 h; percent of clofoctol response, vehicle zero; caspase activation, % (test concentration not listed); 0.066% of 330,000 active;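 active = over half of replicate activation scores above 10%, or exactly half above 10 with the replicate mean above 10; inconclusive = replicate mean below 10 yet half the replicates above 10; inactive = over half of replicates below 10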;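 note: wells of about 30 µL received 50 nL stock; many hits fall short of the cut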
Beta apoptosis – beta cell apoptosis inhibition | INS-1E cytokine-induced death, ATP luminescence, 48 h; percent of positive-control rescue, neutral wells zero | protection from apoptosis, % (test concentration not listed) | 0.8% of 300,000 active;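 active = all replicates at 75% or more, or half of them and the mean; inconclusive = half reach 75% but not the mean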;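 note: 0% = cytokine-treated negative control wells and 100% = positive control rescue; higher means more ATP so stronger rescue from cytokine killing; wells of about 40 µL received 100 nL stock; the first replicate is given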
Ecoli rRNA inh OD600 – recorded beside Ecoli rRNA inh, whose call it bears; OD600 change, %; measured here: OD600 growth;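 optical density of the mix in the first replicate; 0 = DMSO median and -100 = no signal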
Ecoli rRNA inh RFP – also measured in Ecoli rRNA inh; calls as there; RFP signal change, %; measured here: RFP humanized mutant strains;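 first replicate; 0 = DMSO median and -100 = no signal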
The depositor's hits bear a star; ? = inconclusive; · = no result given. A portion of the library; rates above refer to the full screens.

Results follow in this order: MLL AF4-AF9 inh | T cruzi inh | RanGTP-Imp inh | Ecoli rRNA inh | Ecoli rRNA inh OD600 | Ecoli rRNA inh RFP | Calb FLC | Vif TR-FRET | Bfl-1 A1 inh | Beta apoptosis
(1) CS(=O)(=O)c1ccc(Cl)c(NC(=O)COC(=O)CCN=C2NS(=O)(=O)c3ccccc32)c1
→ -4.0 | -13 | 0.1 | 3 | 6 | -1.6 | 4 | 1% | -0.6 | -2
(2) C=CCSc1nnc(Cn2c(=O)sc3ccccc32)n1C
→ -1.4 | -2 | -5.8 | 12 | 3 | -1.8 | -5 | 16% | 2.5 | -3
(3) Cc1cc(C)c([N+](=O)[O-])cc1-c1ccc(/C=N/NC(=O)c2nonc2N)o1
→ · | -6 | 3.6 | · | · | · | -6 | 53µM* | -0.8 | 1
(4) Cc1nc2nc(-c3cccnc3)[nH]n2c(=O)c1Cc1ccccc1
→ · | 11 | -4.5 | · | · | · | -8 | -7% | -1.2 | -5
(5) COc1ccc2c(c1OC)C(=O)OC2Nc1ccccc1S(=O)(=O)C(F)F (centres undefined)
→ · | -8 | 4.5 | · | · | · | -11 | ? | 0.2 | -2
(6) O=C(CCC1CCCN(C(=O)CCC(F)(F)F)C1)NCc1ccc(F)c(F)c1 (centres undefined)
→ -0.4 | -10 | ? | 4 | 13 | 1.3 | 8 | 11% | ? | -19
(7) CCc1nn(CC(=O)NCCCc2ccccc2)c(=O)c2cc3cc(F)ccc3n12
→ · | -1 | 5.4 | · | · | · | 4 | · | 0.7 | -1
(8) CN(C)C(CNC(=O)NC1CCCCC1)c1cccnc1 (centres undefined)
→ · | 13 | ? | · | · | · | -3 | 21% | 0.3 | -6
(9) COc1ccccc1C(=O)N/C(=C\c1ccccc1)C(=O)NC(C)C(=O)O (centres undefined)
→ -1.6 | -32 | -3.2 | 8 | 15 | 1.7 | 3 | 2% | 0.4 | 0
(10) CCOC(=O)C1(Cc2cccc(Cl)c2)CCCN(CCO)C1 (centres undefined)
→ 1.6 | -1 | 2.2 | · | · | · | -6 | 29% | 0.0 | -5
(11) Cc1cccc(NC(=O)C2(c3ccccc3)CCOCC2)c1
→ 1.9 | 8 | -4.6 | 8 | 0 | 0.7 | 3 | -2% | 0.7 | ·
(12) CCN(CC)C(=O)CSc1nc2[nH]ncc2c(=O)[nH]1
→ 0.6 | -10 | -0.1 | 12 | 13 | 1.5 | 16 | -3% | -0.1 | -5
(13) c1ccc2c(c1)oc1c(NCC3CCCO3)ncnc12 (centres undefined)
→ · | -13 | -1.6 | · | · | · | 15 | -2% | -0.5 | 0
(14) Cc1cc(C)c(CN2CCCC(CNC(=O)c3ccc(F)cc3)C2)c(-n2cccn2)c1 (centres undefined)
→ 2.6 | -4 | 2.5 | 16 | 9 | -2.7 | -27 | 12% | 1.8 | -3
(15) CCc1ccc(-c2cc(C)no2)cc1S(=O)(=O)N1CCN(c2ccc(C(C)=O)cc2)CC1
→ 1.9 | 10 | 0.3 | -2 | -4 | 3.0 | -15 | · | 2.6 | 6
(16) O=C(Nc1nnc(SCC(=O)N2CCCc3ccccc32)s1)c1ccc2ccccc2c1
→ · | -14 | 6.5 | · | · | · | 4 | · | -1.2 | -2
(17) O=C(O)CSc1nnc(-c2ccncc2)n1CCc1ccccc1
→ · | -5 | -4.3 | 2 | 7 | -2.5 | -8 | -1% | 0.1 | -4
(18) Cc1ccc(C(=O)N2CCN(c3cccc(C)c3C)CC2)cc1S(=O)(=O)N1CCOCC1
→ 5.7 | · | · | 4 | -21 | 12 | · | · | -0.8 | -3
(19) CC1C/C(=N\NC(=O)c2ccc(NS(=O)(=O)c3ccc(Br)cc3)cc2)CC(C)(C)C1 (centres undefined)
→ 1.8 | -15 | -2.9 | 5 | 4 | -4.4 | -1 | 21% | 0.5 | -8
(20) O=c1nc(N/N=C/c2ccccn2)cn[nH]1
→ -8.9 | -20 | -1.7 | -27 | -22 | 3.4 | 106* | 6% | -0.4 | 61
(21) COc1ccccc1C(=O)NCCC(=O)NC1CCCCCC1
→ -3.7 | · | · | 0 | 4 | -1.4 | · | · | -0.4 | -3
(22) COc1ccc(/C=N\n2nnc3ccccc32)cc1
→ · | -6 | -1.0 | · | · | · | -7 | -2% | -17 | -9
(23) Cc1cccc(CS(=O)(=O)Cc2ccc(C(=O)NCc3ccco3)o2)c1
→ -19 | 4 | -0.9 | -2 | -1 | 7.7 | -5 | -2% | 0.7 | 0
(24) CC(C)=CC(=O)OCC(=O)Nc1ccc(SC(F)F)cc1
→ 0.4 | -3 | -4.2 | · | · | · | -13 | · | 1.6 | -4
(25) Cc1ccc(SCc2cc(=O)[nH]c(Nc3nc(C)c4cccc(C)c4n3)n2)cc1
→ · | 42 | -2.9 | · | · | · | -6 | -1% | -0.1 | -3
(26) Cc1nnc(SCC(=O)Nc2ccc3[nH]c(=O)[nH]c3c2)s1
→ -1.4 | -16 | 5.3 | 2 | 0 | -3.2 | -3 | 1% | -0.8 | 8
(27) Cc1ccc(CN2C(=O)[C@@H]3Cc4c([nH]c5ccccc45)C(C)(C)N3C2=O)cc1
→ -1.6 | 21 | -0.3 | 11 | 7 | 8.0 | 13 | · | 1.9 | 2
(28) COc1ccccc1CN1CC(C(=O)NCc2cc(F)ccc2C)CCC1=O (centres undefined)
→ -1.2 | -10 | -3.8 | -3 | -4 | -8.5 | -3 | · | · | ·
(29) CCOC(=O)C1CCN(S(=O)(=O)CCNC(=O)c2ccc(F)cc2)CC1
→ -0.2 | 4 | 1.2 | 15 | 10 | -0.8 | 0 | -6% | -0.5 | ·
(30) Cc1nc2ccccn2c1C(=O)/C=C/c1cccc([N+](=O)[O-])c1
→ -2.3 | 10 | 0.6 | 21 | 11 | 4.4 | 21 | ? | 0.4 | 102*

More records follow.
Letter code – A = MLL AF4-AF9 inh; B = T cruzi inh; C = RanGTP-Imp inh; D = Ecoli rRNA inh; E = Ecoli rRNA inh OD600; F = Ecoli rRNA inh RFP; G = Calb FLC; H = Vif TR-FRET; I = Bfl-1 A1 inh; J = Beta apoptosis
31	Cn1c(=O)c2c(ncn2CC(=O)N2CCN(S(=O)(=O)c3ccc(F)cc3)CC2)n(C)c1=O
  A = 0.8; B = ·; C = ·; D = ·; E = ·; F = ·; G = ·; H = -15%; I = 1.6; J = -3

32	COc1ccc(-c2nnc3ccc(SCC(=O)N4CCCC4)nn23)cc1
  A = 2.8; B = 5; C = 1.2; D = -1; E = 5; F = 0.8; G = -6; H = 1%; I = 1.1; J = 8

33	Cc1ccc(CNC(=O)CCNS(=O)(=O)c2cccc3nonc23)cc1
  A = -1.1; B = -2; C = 5.2; D = -10; E = -3; F = 0.6; G = 2; H = 13%; I = 0.0; J = -3

34	Cc1cc(=O)[nH]c(N/N=C/c2ccc(N(C)C)cc2)n1
  A = -4.5; B = -12; C = -0.7; D = 6; E = 7; F = -1.4; G = -4; H = 25%; I = -0.3; J = 4

35	O=C(Nc1ccccc1-c1ccccc1)c1ccc(Cl)c([N+](=O)[O-])c1
  A = ·; B = -3; C = -0.5; D = ·; E = ·; F = ·; G = 7; H = ·; I = 0.6; J = 2

36	O=C1C2CC=CCC2C(=O)N1Cc1ccccc1 (centres undefined)
  A = 2.1; B = -12; C = -0.3; D = 6; E = 4; F = -2.7; G = 11; H = 25%; I = -0.1; J = -4

37	CCOc1cc(NC(=O)c2ccccn2)c(OCC)cc1NC(=O)c1ccc(C)cc1
  A = -0.3; B = 31; C = -2.4; D = 0; E = 10; F = -0.9; G = 3; H = ·; I = -0.2; J = -4

38	CCc1nc2ccc(C(=O)NCc3ccco3)cc2nc1CC
  A = ·; B = -8; C = 4.4; D = ·; E = ·; F = ·; G = 4; H = 4%; I = 0.2; J = -1

39	CCOC(=O)c1sc(-c2ccc(C)cc2)c(C#N)c1C
  A = -1.8; B = 18; C = -2.2; D = 5; E = 6; F = -0.4; G = -7; H = -3%; I = 0.7; J = 6

40	CC(C)OC(=O)c1ccc2nc3ccccc3nc2c1
  A = 8.0; B = -10; C = 0.5; D = -16; E = -26; F = -8.9; G = -10; H = 1%; I = -1.7; J = 7

41	O=C(O)C1C2C=CC(O2)C1C(=O)NCc1ccc(Cl)cc1 (centres undefined)
  A = ·; B = -11; C = 1.5; D = ·; E = ·; F = ·; G = -1; H = 2%; I = 0.2; J = -4

42	CN(c1cccc(NC(=O)c2ccc(CN3CCc4ccccc4C3)cc2)c1)S(C)(=O)=O
  A = 2.0; B = 11; C = -0.1; D = -22*; E = -11*; F = -3.9*; G = -2; H = ·; I = -0.1; J = -2

43	COc1ccc(NC(=O)NNC(=O)COc2ccc3cc(Br)ccc3c2)cc1OC
  A = 0.8; B = -4; C = 0.0; D = 3; E = 1; F = -2.9; G = 0; H = ·; I = 0.7; J = -5

44	Cc1ccc(NC(=O)c2cccs2)cc1S(=O)(=O)Nc1cccc(Cl)c1
  A = -9.0; B = 12; C = ?; D = -24; E = -37; F = -1.1; G = 39; H = 10%; I = 0.5; J = 3

45	COc1ccc(-c2cc(C(=O)c3c(N)n(C)c(=O)n(C)c3=O)c3ccccc3n2)cc1OC
  A = 0.9; B = 0; C = -3.2; D = 28; E = 19; F = 0.7; G = -8; H = ·; I = 0.4; J = 2

46	C=Cc1ccc(C(=O)NC2CCCN(Cc3ccccc3F)C2)cc1 (centres undefined)
  A = 1.4; B = -8; C = -7.4; D = ·; E = ·; F = ·; G = 1; H = ·; I = 0.1; J = ·

47	CCOc1cccc(CN2CCC(n3nccc3NC(=O)CCCc3ccccc3)CC2)c1
  A = 4.6; B = 11; C = 6.6; D = -17; E = -19; F = 2.6; G = -1; H = ·; I = -0.3; J = -8

48	Nc1cc(Cl)ccc1N1C(=O)CCC1=O
  A = 0.0; B = -12; C = 4.0; D = 14; E = 16; F = -0.8; G = 8; H = ·; I = 0.2; J = 2

49	CN(CC(=O)Nc1ccccc1C(F)(F)F)CC(=O)N1CCCCCC1
  A = 0.0; B = ·; C = ·; D = 4; E = 8; F = -0.2; G = ·; H = -7%; I = 1.1; J = -4

50	COn1c2c(c3c4nonc4ccc31)CCCC2
  A = -27; B = 7; C = -6.1; D = -43; E = -38; F = -4.4; G = 8; H = 15%; I = 1.0; J = -15

Screening results as filed in PubChem.
